Compound activity from PubChem BioAssay.
StopGo RLuc: FMDV 2A StopGo reporter, Renilla signal; HEK cells with a luciferase reporter of 2A StopGo recoding; Potency, µM (doses to about 57.5 µM), for inactives: at the highest dose signal change, negative = less light; 120,000 tested, 0.32% active; active means well fitted falling curve with a large enough effect; inconclusive means small, poorly fitted or top-dose-only effect; inactive means no such curve, though single readings can be large or run the other way; note: nearly all actives have a fitted effect of over 55% in size; overnight with compound
StopGo FLuc: FMDV 2A StopGo reporter, firefly signal | HEK cells with a luciferase reporter of 2A StopGo recoding | Potency, µM (top dose mostly 57.5 µM), inactives show at the highest dose signal change, negative = less light | 120,000 tested, 0.23% active; active = well fitted falling curve with a large enough effect; inconclusive = small, poorly fitted or top-dose-only effect; inactive = no such curve, though single readings can be large or run the other way; note: nearly all actives have a fitted effect of over 60% in size; overnight with compound
* marks the source's active call; other numbers are inactive results; u = inconclusive; & = joins results of further samples; [ ] = dose if it differs, or a comment. % is set by controls: 0 for no effect and ±100 for the full control effect; potency is the fitted concentration of half-maximal effect. These rows are one share of the data; the hit share may differ from the screen's.

Order of results – StopGo RLuc, StopGo FLuc
O=C(Cc1ccc(F)cc1)Nc1ccccc1C(F)(F)F
  14%, 9%
CCN1CCOC(=O)C1CC(=O)Nc1ccc(Br)cc1 (configuration not stated)
  -24%, -23%
CC(C(=O)Nc1ccc(C(F)(F)F)cc1)N(C)C (configuration not stated)
  14%, 35%[activator]
Cc1cccc(OCC(=O)Nc2ccc(S(=O)(=O)N(Cc3ccccc3)c3ccccc3)cc2)c1
  -8%, -18%
O=C(OCc1nnnn1-c1ccccc1)C1(c2ccccc2)CCCC1
  0%, 10%
CCc1ccc(-n2ccc3nc(N4CCc5ccccc5C4)ncc3c2=O)cc1
  u, -75%
Cc1ccc(NC(=O)c2c(NC(=O)c3ccccc3)sc3c2CCC3)cc1
  -8%, 8%
Cc1oc2cc(OCC(=O)N3CCCC(C(=O)O)C3)ccc2c(=O)c1-c1ccc(Cl)cc1 (configuration not stated)
  -1%, -1%
CCC(C)NC(=O)Cn1c(=O)n(-c2ccc(C)c(C)c2)c(=O)c2c3c(sc21)CCCCC3 (configuration not stated)
  -6%, -10%
Cc1ccc(-c2c(C)nn3c(N4CCN(CCO)CC4)cc(C)nc23)cc1
  -13%, -10%
COc1ccc(-n2nc(C(=O)Nc3cccc(Cl)c3)c3c4ccccc4n(C)c3c2=O)cc1Cl
  -12%, -20%
COCC(=O)N1CCN(c2oc(-c3cccc(C)c3)nc2S(=O)(=O)c2ccc(F)cc2)CC1
  43%[activator], -12%
CCc1ccccc1Nc1cc(C(=O)NCCc2ccccc2)c2ccccc2n1
  -15%, -12%
O=C(Nc1sc2c(c1C(=O)NCc1ccccc1)CCCC2)c1cc(=O)c2cc(Cl)ccc2o1
  -15%, -20%
COc1ccc(CN(Cc2ccco2)C(=O)COc2ccccc2Cl)cc1
  36%[activator], -12%

(more compounds)
Order of results – StopGo RLuc, StopGo FLuc
CCN(CC)C(=O)c1ccc(O)c(OC)c1
  -3%, -5%
COC(=O)c1scc(-c2ccccc2)c1S(=O)(=O)Nc1cccc(C)c1C
  142%[activator], -3%
CCOc1ccc(CNC(=O)c2ccc(Sc3ccc(Cl)cc3)c(NC(C)=O)c2)cc1
  u, u
CCOc1cccc(C(=O)Nc2ccc3oc(-c4ccc(C(C)(C)C)cc4)nc3c2)c1
  -2%, -9%
O=S(=O)(c1ccccc1)c1nnn2c1nc(NCc1ccccc1)c1cc(Cl)ccc12
  1%, -2%
COc1cc(C2C(C#N)=C(N)Oc3n[nH]c(C)c32)ccc1OCc1c(F)cccc1Cl (configuration not stated)
  31%, 35%[activator]
O=C(O)COc1ccc(/C=C/c2nc3ccccc3c(=O)n2-c2ccc(C(=O)O)cc2)cc1
  -3%, 0%
N/C(=N\c1nc2ccccc2o1)NC(=O)c1ccccc1
  -1%, 169%[activator]
O=C(COc1ccc(Cl)cc1)Nc1ccc(-c2nc3ccccc3s2)c(O)c1
  -5%, -17%
O=c1[nH]c(=O)n(Cc2ccccc2)c2nc(-c3cccc(F)c3)n(CC3CCCO3)c12 (configuration not stated)
  0%, -10%
CC(=O)NC(Cc1c[nH]c2ccccc12)C(=O)N1CCN(S(=O)(=O)c2ccc(Cl)cc2)CC1 (configuration not stated)
  -16%, -4%
CN(Cc1ccccc1)C(=O)C1CCN(S(=O)(=O)c2ccc3c(c2)oc(=O)n3C)CC1
  21%, -3%
O=C(CCc1ncc(-c2c(F)cccc2F)o1)Nc1ccc(F)c(F)c1F
  65%[activator], 7%
Cc1ccc(/C=N/NC(=O)c2ccc(Cl)cc2)s1
  98%[activator], 166%[activator]
COc1cc(C2CC(=O)Nc3nc(C)[nH]c(=O)c32)cc(OC)c1OC (configuration not stated)
  -1%, 14%

Continued:
Order of results – StopGo RLuc, StopGo FLuc
O=C(CN1C(=O)COc2ccc(S(=O)(=O)N3CCOCC3)cc21)N1CCCCC1
  0%, 4%
COc1ccc(C2C=C(c3ccc(Cl)c(Cl)c3)Nc3ncnn32)cc1 (configuration not stated)
  -2%, 53%[activator]
CCn1cc(C(=O)NCC(C)(CC)N2CCOCC2)c2ccccc21 (configuration not stated)
  -3%, 181%[activator]
CN1CCN(CCCN2c3ccccc3Sc3ccc(Cl)cc32)CC1
  -3%, -3%
Cc1cccc(C(=O)Nc2ccc(NC(=O)c3ccco3)cc2O)c1
  -5%, 73%[activator]
CCOc1ccc(NS(=O)(=O)c2ccc3[nH]cc(C(=O)N(C)Cc4ccccc4)c(=O)c3c2)cc1
  23%, -5%
COc1ccc(OC)c(NC(=O)CSc2n[nH]c(-c3ccccc3Cl)n2)c1
  0%, -16%
CC(=O)N1CCCC1c1nc2ccccc2n1Cc1ccccc1F (configuration not stated)
  -10%, 1%
CCC(=O)N1CCc2cc(Br)cc(S(=O)(=O)NCCc3ccc(C)cc3)c21
  12%, u
CCOC(=O)c1ccccc1NC(=O)Cn1ncc2c([nH]c3ccccc32)c1=O
  84%[activator], -20%
CCOc1ccc(-c2nc3c(c(SCC(=O)Nc4ccccc4C)n2)Cc2ccccc2O3)cc1
  -16%, 10%
CCc1noc2ncnc(N3CCCC(C(=O)NCc4ccccc4Cl)C3)c12 (configuration not stated)
  -22%, -20%
COc1cc2nc(SCc3cccc(Cl)c3)n3nc(CCn4nc(C)cc4C)nc3c2cc1OC
  -27%, u
CC(C)COc1ccc(C(=O)Nc2cccc3cccnc23)cc1
  3%, 0%
Cc1c(C(=O)Nc2nc3c(s2)CCCCC3)[nH]c2c1C(=O)CCC2
  0%, -52%

Continued:
Order of results – StopGo RLuc, StopGo FLuc
CC(C)c1ccc2sc3ccccc3c(=O)c2c1
  -19%, 217%[activator]
COc1ccccc1NC(=O)Cn1c(=O)n(Cc2ccco2)c(=O)c2oc3ccccc3c21
  34%[activator], -20%
C=CCOC(=O)C(C#N)c1nc2ccccc2nc1N1CCC(Cc2ccccc2)CC1 (configuration not stated)
  1%, 4%
Cc1ccc(NC(=O)CN2C(=O)C(c3ccc(C(C)(C)C)cc3)=NC2(C)C)cc1
  -8%, 3%
CCOc1ccc(-c2csc(-c3c(C)c(C)nn(C)c3=O)n2)cc1
  -5%, -4%
O=C(Nc1ccccc1C(F)(F)F)N1Cc2ccccc2Oc2ncccc21
  -7%, 15%
CCCNCC(O)COc1ccccc1C(=O)CCc1ccccc1 (configuration not stated)
  0%, -26%
COCCCNC(=O)c1cc(Nc2cc(C)cc(C)c2)nc2ccccc12
  6%, 80%[activator]
CC(C)CCn1cnc2c1c(=O)n(CC(=O)NCC1CCCO1)c(=O)n2Cc1ccccc1 (configuration not stated)
  -8%, -6%
CCCCn1nc(C(=O)Nc2nnc(C)s2)c2ccccc2c1=O
  63%[activator], 47%[activator]
COc1ccc(NC(=O)CSc2nnc(-c3ccc(OC)cc3)s2)cc1
  -10%, 39%[activator]
COc1cccc(C2C(C(=O)Nc3ccccc3)=C(C)Nc3nc(SC)nn32)c1OC (configuration not stated)
  -5%, -12%
CC1(C)C=Cc2c(nc3ccccc3c2N)C1
  -6%, -12%
CNCC[C@@H](Oc1ccccc1C)c1ccccc1
  -1%, -14%
CC(C)c1ccc(NS(=O)(=O)c2c[nH]c3ccc([N+](=O)[O-])cc23)cc1
  222%[activator], 12%

The list goes on.
Order of results – StopGo RLuc, StopGo FLuc
CCCC12CN3CC(C)(CN(C1)C3c1ccccc1Cl)C2=O (configuration not stated)
  -4%, -12%
O=C1C(Nc2ccccc2)=CC(c2ccc(Br)cc2)N1c1ccccc1 (configuration not stated)
  -2%, 34%[activator]
CC(NS(=O)(=O)c1cccs1)c1cccnc1 (configuration not stated)
  9%, -7%
CC1CCN(S(=O)(=O)c2ccc3c(ccn3CCC(=O)NCc3ccc(N(C)C)cc3)c2)CC1
  86%[activator], 0%
Cc1ccc(OCC(=O)Nc2ccc(Cl)c(-c3nc4ccccc4[nH]3)c2)cc1C
  -13%, -14%
CCN1CCN(c2nnc(-n3cccc3C(=O)NCc3ccccc3OC)s2)CC1
  32%[activator], 1%
CCOc1ccc(OCC(=O)Nc2sc3c(c2C(=O)N2CCOCC2)CCCC3)cc1
  18%, -10%
COc1cccc(NC(=O)CC2C(=O)OCCN2Cc2ccccc2)c1 (configuration not stated)
  49%[activator], -8%
CCn1nc(C(=O)Nc2cccc(C)c2C(=O)OC)c2ccccc2c1=O
  u, -28%
O=C(O)CCCn1cc(NC(=O)COc2ccccc2F)cn1
  -8%, -4%
O=C(O)c1ccc(/C=C/C(=O)c2ccc(Br)cc2)cc1
  16%, 0%
CCc1ccc(NC(=O)Cn2cnc3sc(C)c(S(=O)(=O)N4CCN(c5ccccc5OC)CC4)c3c2=O)cc1
  3%, -6%
CCc1ccc(OCC(=O)Nc2ccc(S(=O)(=O)Nc3onc(C)c3C)cc2)cc1
  -6%, 3%
O=C1CN(CC(=O)c2c[nH]c3ccccc23)CCN1
  -8%, -3%
C[N+](C)(C)CC(=O)O
  -14%, -4%[11.5 µM]

The list continues:
Order of results – StopGo RLuc, StopGo FLuc
CC(C)(C)NC(NC(=O)c1ccc(Br)cc1)C(Cl)(Cl)Cl (configuration not stated)
  15%, 16%
CCOc1ccc(-n2c(SCC(=O)NCc3ccco3)nc3c([nH]c4ccccc43)c2=O)cc1
  -2%, 14%
CCCn1c(Oc2ccccc2Cl)nc2c1c(=O)n(C)c(=O)n2C
  -5%, -2%
O=C(Nc1ncn[nH]1)C1CC(=O)N(c2ccc3c(c2)OCCO3)C1 (configuration not stated)
  6%, 0%
Cc1cc(C)c(NS(=O)(=O)c2ccc(S(=O)(=O)N3CCCC3)cc2)c(C(=O)O)c1
  21%, -1%
O=C(Cn1nc(C(=O)O)c2ccccc2c1=O)Nc1ccccc1Cl
  -19%, -11%
Cc1ccc(CNc2ccc(C(=O)O)cc2)cc1
  24%, 112%[activator]
CCCCN(c1ccccc1)c1ncnc2c1cnn2-c1cccc(C)c1
  -19%, 61%[activator]
COc1ccc(CCNC(=O)CCn2c(=O)c3ccccc3n(CC(=O)Nc3cc(Cl)ccc3C)c2=O)cc1OC
  1%, -2%
Cc1ccc(S(=O)(=O)c2nc(-c3ccccc3F)oc2N2CCCCC2)cc1
  158%[activator], -9%
CCc1c(C)sc(NC(=O)/C=C/c2ccccc2)c1C#N
  -1%, 27%
Cc1ccc(-n2c(SCC(=O)c3ccccc3)nc3c([nH]c4ccccc43)c2=O)cc1
  -9%, 0%
CCc1noc2nc(C)nc(N3CCCC(C(=O)NCCc4ccc(SC)cc4)C3)c12 (configuration not stated)
  2%, 7%
CCc1ccc(NC(=O)c2cc3sc(Cl)cc3n2C)cc1
  -13%, 98%[activator]
O=S(=O)(c1ccccc1)N1CCN(Cc2ccccn2)CC1
  2%, 15%

Four entries from above in another layout.
Molecule,StopGo RLuc,StopGo FLuc
O=C(Cn1nc(C(=O)O)c2ccccc2c1=O)Nc1ccccc1Cl,-19%,-11%
CC(C)(C)NC(NC(=O)c1ccc(Br)cc1)C(Cl)(Cl)Cl (configuration not stated),15%,16%
Cc1ccc(S(=O)(=O)c2nc(-c3ccccc3F)oc2N2CCCCC2)cc1,158%[activator],-9%
O=S(=O)(c1ccccc1)N1CCN(Cc2ccccn2)CC1,2%,15%

(more compounds)
Order of results – StopGo RLuc, StopGo FLuc
CC(=O)c1ccc(NC(=O)C2(c3ccc(C)cc3)CCCC2)cc1
  5%, 11%
Fc1ccc(OCc2nc(CSc3ncc(-c4ccc(F)cc4)o3)cs2)cc1
  -8%[1.06 µM], 0%
Cc1cccc(N2CCN(CCCNc3ncnc4onc(-c5ccc(Cl)cc5)c34)CC2C)c1 (configuration not stated)
  -7%, 1%
Cc1cccc(-c2ocnc2C(=O)Nc2ccc(Cl)cc2C)c1
  -4%, 2%
COc1ccccc1CN(C)CC(=O)NC(=O)NC1CCCC1
  2%, 21%
O=C(COc1cccc(-n2cnnn2)c1)Nc1ccc(S(=O)(=O)N2CCOCC2)cc1
  -4%, -2%
COc1ccc(C(=O)c2oc3cc(NC(=O)C(C)C)ccc3c2C)cc1OC
  -21%, u
CCc1c(C)nc2c(Br)cccc2c1Cl
  10%, 6%
Cc1oc2cc(OCC(=O)Nc3ccc4c(c3)OCCO4)ccc2c(=O)c1-c1ccc(Cl)cc1
  u, 20%
Brc1ccccc1Oc1ccc2nnnn2n1
  -11%, 2%
CN1CCN(C(CNC(=O)C(=O)Nc2cccc(Cl)c2)c2ccc3c(c2)OCO3)CC1 (configuration not stated)
  -22%&-3%, -17%&-13%
CCOC(=O)C(=O)Nc1ccc(OCC)cc1
  12%, 7%
O=C(NCc1ccc(CN2CCCC2)cc1)c1cc(C2CC2)nc2ccccc12
  -20%, -22%
CCC12CN(C(C)=O)CC(CC)(CN(C(C)=O)C1)C2=O
  2%, 12%
CCc1ccc(OC(=O)c2cc(OC)c(OC)c(OC)c2)c(Br)c1
  17%, 19%

(listing goes on)
Order of results – StopGo RLuc, StopGo FLuc
Cc1cccc(C(CC(=O)Nc2cccc(-c3ccno3)c2)n2cccc2)c1 (configuration not stated)
  u, u
N#CCCN(C(=O)CN1CCCC1c1ccc2c(c1)OCCO2)c1ccccc1F (configuration not stated)
  8%, -2%
CCC(C)(C)C1CCc2c(sc(NC(C)=O)c2C#N)C1 (configuration not stated)
  -3%, 12%
CC(C)NC(=O)NCc1ccc(C(=O)NCC2(c3ccccc3)CCCC2)cc1
  -6%, 18%
